Assay outcomes as filed in PubChem.
Mtb betalactam: beta-lactam sensitization of Mtb H37Rv. inhibition, % at 25 µM. 330,000 compounds, 0.27% hits. M. tuberculosis H37Rv growth with meropenem, percent inhibition; hits of this screen are not shown here;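 active = about 74% or more and at least 40 points above the plate without the antibiotic, then above 30% in a dose series; inconclusive = first-round hits that could not be retested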;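 note: growth measured after seven days incubation then overnight dye step; 0% = bacteria only wells and 100% = bacteria with antibiotic; twin plates without the antibiotic show which effects depend on it; some results filed as inactive read as strong as hits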
YopH PTP inh: inhibitors of Yersinia enterocolitica YopH tyrosine phosphatase; fluorescence Ex485/Em525; inhibition, %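 (about 10 µM by stock and volumes)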; 140,000 compounds, 0.16% hits; AID 898;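 active = inhibition of 50% or more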;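 note: controls were vehicle for no effect and minimum signal wells for full effect; inactives centre near -20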
Arbovirus inh: blocks arbovirus infection | arbovirus infection cell-based antiviral screen | inhibition, % at 10 µM | 200,000 compounds, 0.37% hits | AID 1251;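 active = inhibition from about 30%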;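 note: bluetongue infection of BSR cells; cell survival read as ATP light after 72 h; 0% = infected wells without compound and 100% = uninfected wells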
Mtb H37Rv: M. tuberculosis H37Rv growth inhibitors, H37Rv strain (AID 1626); M. tuberculosis H37Rv growth inhibition; higher % means a stronger effect; inhibition, % at 10 µM; hits with a dose series show IC50 in µM; 220,000 compounds, 0.95% hits;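 active = confirmed in a dose series; inconclusive = inhibition above 80% but not taken into the dose series; inactive = below 80% or under 30% at every dose of the series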;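 note: bacteria incubated seven days before Alamar blue readout; 0% = bacteria only wells and 100% = bacteria with antibiotic wells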
RecA intein inh: Mtb RecA intein splicing inhibition; P9WHJ3; cell-free RecA intein splicing, fluorescence; inhibition, %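 (about 9 µM by stock and volumes)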; 290,000 compounds, 0.75% hits; in the data active = inhibition above about 30%; inconclusive = no clear call, values can overlap the other calls;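 note: 0% = vehicle wells and 100% = reference inhibitor control wells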
Target sequence (P9WHJ3 whole entry, looked up): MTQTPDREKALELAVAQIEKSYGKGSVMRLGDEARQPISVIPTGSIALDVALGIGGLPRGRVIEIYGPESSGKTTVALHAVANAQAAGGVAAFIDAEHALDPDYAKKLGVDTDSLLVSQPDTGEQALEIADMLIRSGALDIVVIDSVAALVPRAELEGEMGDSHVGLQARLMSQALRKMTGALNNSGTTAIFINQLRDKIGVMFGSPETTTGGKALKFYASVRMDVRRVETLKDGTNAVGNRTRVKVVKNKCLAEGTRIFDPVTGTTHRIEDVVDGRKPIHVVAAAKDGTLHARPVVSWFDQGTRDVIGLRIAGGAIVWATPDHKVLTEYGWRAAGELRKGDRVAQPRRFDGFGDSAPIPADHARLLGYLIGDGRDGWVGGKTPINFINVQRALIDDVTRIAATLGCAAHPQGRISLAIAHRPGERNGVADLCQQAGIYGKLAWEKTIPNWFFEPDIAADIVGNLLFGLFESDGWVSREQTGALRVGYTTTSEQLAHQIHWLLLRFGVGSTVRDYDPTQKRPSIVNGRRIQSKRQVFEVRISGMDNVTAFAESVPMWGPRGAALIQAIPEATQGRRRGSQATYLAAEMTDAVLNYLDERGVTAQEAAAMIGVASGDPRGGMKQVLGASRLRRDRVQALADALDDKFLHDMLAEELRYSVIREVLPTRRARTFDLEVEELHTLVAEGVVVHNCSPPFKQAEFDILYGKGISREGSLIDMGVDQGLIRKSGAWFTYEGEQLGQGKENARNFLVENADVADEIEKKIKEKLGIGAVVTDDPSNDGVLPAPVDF
Arbovirus inh repeat: further read-out of Arbovirus inh, marked with its call; inhibition, %; measured here: 10K subset replicate screen; many hits read low in the repeat;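 first of two repeat runs on a subset; 0% = infected and 100% = uninfected wells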
* hit, by the source's call; ? = inconclusive; . = no result given. A portion of the library (hit frequency here may not be typical).

SMILES | Mtb betalactam | YopH PTP inh | Arbovirus inh | Mtb H37Rv | RecA intein inh | others
O=C(NNC(=O)c1cccs1)c1ccccc1 | 3 | . | 7 | -1% | -3.2
CC(C)(C)NC(=O)NC(=O)CSc1ncccn1 | 0 | . | 1 | 4% | 1.5
c1cc(-c2n[nH]c(-c3ccncc3)n2)ccn1 | -10 | . | . | . | 0.3
CC(CCc1ccccc1)NC(=O)COC(=O)C1=COCCO1 (centres undefined) | 97 | -35 | -5 | 66% | -1.1
NS(=O)(=O)c1cc(C(=O)OC2CCOC2=O)ccc1Cl (centres undefined) | 3 | . | . | . | 17
CCOc1ccc2c(c1)C(N(CCN1CCOCC1)C(=O)Nc1ccc(OC)cc1OC)CC(C)(C)O2 (centres undefined) | 0 | . | -1 | 8% | 1.2
COC(=O)c1ccc(/C=C/c2ccc3cccc(OC(C)=O)c3n2)cc1 | 95 | -42 | -12 | ? | 1.0
CCOC(=O)Cc1c(Sc2ccccc2)c2ccccc2n1C | 6 | -29 | 4 | 5% | -3.3
Cn1c(CBr)c(C(=O)c2ccc([N+](=O)[O-])cc2)c(=O)n(C)c1=O | 0 | . | . | -1% | -3.2
CN(CC1COc2ccccc2O1)C(=S)Nc1ccccc1 (centres undefined) | -3 | -7 | . | 5% | 2.1
Cc1ccc(NC(=O)COn2nnc3ccc(S(=O)(=O)N(C)C)cc32)cc1F | 6 | 9 | 7 | -1% | 1.4
CC(Sc1ncnc2sc(-c3ccccc3)cc12)C(N)=O (centres undefined) | 6 | . | . | . | -1.0
CC(=O)c1ccc(NC(=O)C2CCN(S(=O)(=O)c3cccs3)CC2)cc1 | -3 | . | . | -4% | .
CCOC(=O)c1c(C)nc2c(c1C)c(=O)oc1ccccc12 | -11 | -17 | -5 | -6% | 0.4
O=C(Cn1nnc(-c2ccccc2)n1)OCc1csc(-c2ccccc2)n1 | -1 | -25 | -2 | -3% | 0.7

Fetched one by one from the entries so far:
SMILES | Mtb betalactam | YopH PTP inh | Arbovirus inh | Mtb H37Rv | RecA intein inh | others
NS(=O)(=O)c1cc(C(=O)OC2CCOC2=O)ccc1Cl (centres undefined) | 3 | . | . | . | 17
CC(Sc1ncnc2sc(-c3ccccc3)cc12)C(N)=O (centres undefined) | 6 | . | . | . | -1.0
CCOC(=O)Cc1c(Sc2ccccc2)c2ccccc2n1C | 6 | -29 | 4 | 5% | -3.3
O=C(NNC(=O)c1cccs1)c1ccccc1 | 3 | . | 7 | -1% | -3.2

Returning to the listing; the 5 compounds before the break are reprinted first.
SMILES | Mtb betalactam | YopH PTP inh | Arbovirus inh | Mtb H37Rv | RecA intein inh | others
Cc1ccc(NC(=O)COn2nnc3ccc(S(=O)(=O)N(C)C)cc32)cc1F | 6 | 9 | 7 | -1% | 1.4
CC(Sc1ncnc2sc(-c3ccccc3)cc12)C(N)=O (centres undefined) | 6 | . | . | . | -1.0
CC(=O)c1ccc(NC(=O)C2CCN(S(=O)(=O)c3cccs3)CC2)cc1 | -3 | . | . | -4% | .
CCOC(=O)c1c(C)nc2c(c1C)c(=O)oc1ccccc12 | -11 | -17 | -5 | -6% | 0.4
O=C(Cn1nnc(-c2ccccc2)n1)OCc1csc(-c2ccccc2)n1 | -1 | -25 | -2 | -3% | 0.7
CN(C(=O)CN1C(=O)C2C3CC(C(Br)C3Br)C2C1=O)C1CCCCC1 (centres undefined) | 4 | . | . | . | 1.7
N=C(N)c1ccc(Cl)cc1 | 4 | . | -2 | -1% | -0.1
Cc1cc(-c2ccccc2)n[nH]1 | -1 | . | -2 | -4% | -2.1
O=C1C2CCCCN2C(=O)N1CCCCN1CCN(c2cccc(Cl)c2)CC1 (centres undefined) | -5 | . | . | . | 1.5
COc1cccc(NC(=O)CCc2nnc3ccc(N4CCN(c5cccc(OC)c5)CC4)nn23)c1 | -7 | . | . | . | 1.2
Cc1cc(C)c(NC(=O)CSc2nnc(CNC(=O)c3c(F)cccc3Cl)o2)c(C)c1 | -1 | . | . | . | 0.0
CCN(C1CCS(=O)(=O)C1)S(=O)(=O)c1cc(C)ccc1C (centres undefined) | -12 | . | . | . | -2.8
COc1ccc(/C=C(\NC(=O)c2cccs2)C(=O)N2CCOCC2)cc1OC | 11 | -19 | -1 | -8% | -3.8
CCCNC(=S)N1CCC(c2nc3cc(C)c(C)cc3[nH]2)CC1 | 9 | -44 | -5 | 1% | -4.6
CC1CCCC(C)N1CC(O)COCc1ccccc1F (centres undefined) | 1 | . | . | . | -1.9
O=S(=O)(c1ccc2ccccc2c1)N1CCN(Cc2ccccn2)CC1 | 0 | . | 29 | 2% | -1.5
Cc1nn2c3c(cnc2c1-c1ccccc1)C(=O)CCC3 | 0 | -44 | -8 | -4% | -1.5
COc1ccc2c(c1)C(=O)OC2CC(=O)O (centres undefined) | -2 | -36 | 4 | -8% | .
CN(CCc1ccccn1)C(=S)Nc1ccc(Cl)c(Cl)c1 | 18 | . | 9 | 4% | -0.3
CCN(CC)CC(=O)n1c2c(c3ccccc31)CCCC2 | -2 | -43 | -4 | 0% | -2.9 | Arbovirus inh repeat=1

Brought forward from above: 3 compounds; new compounds follow.
SMILES | Mtb betalactam | YopH PTP inh | Arbovirus inh | Mtb H37Rv | RecA intein inh | others
COc1ccc2c(c1)C(=O)OC2CC(=O)O (centres undefined) | -2 | -36 | 4 | -8% | .
CN(CCc1ccccn1)C(=S)Nc1ccc(Cl)c(Cl)c1 | 18 | . | 9 | 4% | -0.3
CCN(CC)CC(=O)n1c2c(c3ccccc31)CCCC2 | -2 | -43 | -4 | 0% | -2.9 | Arbovirus inh repeat=1
Cc1ccc(C2/C(=C(\O)c3c(C)nc4ccccn34)C(=O)C(=O)N2CCN(C)C)o1 (centres undefined) | -12 | . | . | -8% | -0.6
CCOc1ccc2c(c1)s/c(=N\S(=O)(=O)c1ccc(OC)cc1)n2C(F)F | -4 | -7 | 6 | -7% | 1.0
c1ccc(Cc2nn3c(COc4ccccc4)nnc3s2)cc1 | -5 | 13 | 0 | 8% | 3.4
O=C(CN1C(=O)/C(=C/c2ccco2)SC1=S)NC1CCS(=O)(=O)C1 (centres undefined) | 0 | . | . | . | -0.2
CC(C)C(C(=O)Nc1sc2c(c1C#N)CCCCC2)N1C(=O)c2ccccc2C1=O (centres undefined) | -6 | -48 | 4 | -13% | 4.8
c1csc(Cc2nc(-c3ccc(-n4cccc4)cc3)no2)c1 | 8 | -51 | -8 | 5% | 4.4 | Arbovirus inh repeat=8
CCOC(=O)CCC(=O)c1c(C)oc2ccc(OC)cc12 | -1 | -28 | -2 | 1% | .
CC(NC(=O)CCc1ccccc1)c1cc2c(cc1Cl)OCCO2 (centres undefined) | -4 | -13 | -4 | 1% | -0.5
C/C(=N/NC(=O)c1ccncc1)c1ccccc1 | 98 | . | . | . | -7.3
O=C(Nc1nc(-c2ccccn2)cs1)Nc1ccc(F)cc1F | 88 | . | . | . | 3.5
CCOC(=O)C1(Cc2cccc(OC)c2)CCN(Cc2cccc(OC)c2O)CC1 | 5 | . | 33* | 3% | 0.5
CCC(=O)NC(=S)Nc1ccc(NC(=O)c2cc3ccccc3o2)c(OC)c1 | -6 | . | 3 | -8% | -0.2
O=[N+]([O-])c1ccc(O)c(/C=N/n2cnc3ccccc32)c1 | 4 | -36 | -4 | 3% | 1.8
C=CCOc1ccc(C(=O)O)cc1Cl | -8 | . | . | . | -0.4
Cc1ccc(-c2cc(C(=O)O)c3ccccc3n2)s1 | 6 | . | . | . | -15
COC(=O)CN1C(=S)N(c2ccc(F)cc2)C(=O)C1CC(=O)Nc1ccccc1 (centres undefined) | -4 | . | -2 | 3% | 1.7
Cc1cc(NC(=O)CSc2ncnc3c2cnn3-c2ccccc2)no1 | 92 | . | -3 | 6% | -2.2
COc1cccc(-c2cc(C(=O)N3C(C)CCCC3C)no2)c1 (centres undefined) | 61 | 9 | -8 | 4% | 2.5
O=c1[nH]nc(SCc2nc3ccccc3s2)n1C1CC1 | 18 | . | -1 | -5% | -2.9
Cc1cccc(C#N)c1NC1=CC(=O)CC(C)(C)C1 | -7 | 0 | 2 | -8% | 1.1
O=C(O)c1ccc(Cl)c(S(=O)(=O)N2CCCC2)c1 | -3 | . | . | -14% | -0.2
Nc1nc(Br)c2c(F)cccc2c1-c1ccc(F)cc1 | 37 | -28 | 23 | -2% | -2.0
CCCCN(C(=O)c1ccc2c(c1)OCCO2)c1c(N)n(CC(C)C)c(=O)[nH]c1=O | -8 | . | . | . | -0.6
Cc1cc(C)cc(N2C(=O)CCN(Cc3ccccc3)C2=O)c1 | -8 | . | . | -10% | 1.2
Cc1noc(C)c1COc1cccc(C(=O)Nc2ccc(C#N)cc2)c1 | -2 | 13 | -11 | 1% | -1.0
Cc1ccc(NC(=O)c2cc(S(=O)(=O)N3CCCC3)c[nH]2)c(C)c1 | 0 | . | . | . | 1.0
CCC1=NN(C(=O)c2ccccc2O)C(O)(c2ccccc2)C1 (centres undefined) | 86 | . | . | . | 6.3
CCOc1ccccc1Oc1coc2cc(OCC(=O)O)ccc2c1=O | 2 | . | 3 | 1% | 0.9
C=CCNC(=O)CSc1ncc2c(n1)-c1c(csc1SC)CC2 | 2 | . | . | -3% | -23
COc1cc(OC)c(/C=N/NC(N)=S)cc1Br | 42 | -26 | -1 | -4% | -3.4

By substructure, those above with a nitro group on carbon.
SMILES | Mtb betalactam | YopH PTP inh | Arbovirus inh | Mtb H37Rv | RecA intein inh | others
Cn1c(CBr)c(C(=O)c2ccc([N+](=O)[O-])cc2)c(=O)n(C)c1=O | 0 | . | . | -1% | -3.2
O=[N+]([O-])c1ccc(O)c(/C=N/n2cnc3ccccc32)c1 | 4 | -36 | -4 | 3% | 1.8

Next compounds follow.
SMILES | Mtb betalactam | YopH PTP inh | Arbovirus inh | Mtb H37Rv | RecA intein inh | others
CCOc1ccc(N2C(=O)Nc3ccccc3C2(O)C(=O)NCc2ccco2)cc1 (centres undefined) | -2 | . | 3 | 2% | 0.9
C=CCOc1c(Br)cc(CNc2ccc(NC(=O)C(C)C)cc2)cc1OCC | 10 | 7 | 0 | 7% | -1.2
O=C1N(CN2CCC3(CC2)OCCO3)c2ccccc2C12OCCCO2 | 9 | -52 | 9 | -3% | -1.9
CCCCCC(=O)Nc1sc(C)c(C)c1C#N | -6 | -27 | -16 | -4% | -3.1
COc1cc(N/C(N)=N/c2nc(C)cc(C)n2)c(OC)cc1Cl | -5 | . | 7 | -6% | -2.5
Cc1ccc(OC(=O)C2CCN(C(=O)c3ccccc3C)CC2)c(Br)c1 | 40 | . | . | . | 14
Cn1c(-c2sc3cc(C(F)(F)F)cnc3c2-c2ccccn2)n[nH]c1=S | -3 | . | 1 | 5% | -4.8
COc1ccccc1NC(=O)c1c(C)nc2ccccc2c1C(=O)O | 1 | . | . | -2% | 12
CC(=O)Nc1ccc(NC(=O)CSc2nnnn2-c2ccc3c(c2)OCCO3)cc1 | 1 | . | -1 | -7% | -0.8
COc1ccc(Cl)cc1N(CC(=O)Nc1ccccc1C(=O)N1CCCC1)S(C)(=O)=O | 9 | . | . | . | 4.5
CSC(=NC#N)N1CCN(C(=NC#N)SC)CC1 | 1 | . | -5 | 7% | -0.5
CC1CC(C)CN(C(=O)COC(=O)c2ccc[nH]c2=O)C1 (centres undefined) | 7 | 5 | -1 | -10% | -1.0
CCSc1nnc(NC(=O)CSc2nccn2-c2cc(C)cc(C)c2)s1 | 55 | 6 | 3 | 59% | 2.9
